Compound activity deposited in PubChem BioAssay by ICCB-Longwood Screening Facility, Harvard Medical School.
Sa growth inh = blocks Staphylococcus aureus growth; S. aureus RN4220 growth, OD600, 20 h, 42 °C; hits give low values; relative growth, % (no concentration beside the values); 170,000 compounds, 0.53% hits; AID 720641;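 active = growth at 42 °C up to 50% and 20 or more points under that at 30 °C, or under 10% at both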;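 note: 300 nL library stock went into each well; scaled to the means of positive and negative controls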
GIV-Gai inh = GIV-Galpha-i interaction inhibition. Galpha-i3/FITC-GIV peptide fluorescence polarization, 90 min; hits give low values; scaled: aluminum fluoride 0%, vehicle 100%. P08753. 210,000 compounds, 0.42% hits. percent of control (FP), % (concentration not given with the values);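 active = replicate mean at 85% of control or lower, very high polarization wells dropped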;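 note: wells of about 15 µL received 100 nL stock; the first replicate is given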
Target sequence (P08753 whole entry, looked up): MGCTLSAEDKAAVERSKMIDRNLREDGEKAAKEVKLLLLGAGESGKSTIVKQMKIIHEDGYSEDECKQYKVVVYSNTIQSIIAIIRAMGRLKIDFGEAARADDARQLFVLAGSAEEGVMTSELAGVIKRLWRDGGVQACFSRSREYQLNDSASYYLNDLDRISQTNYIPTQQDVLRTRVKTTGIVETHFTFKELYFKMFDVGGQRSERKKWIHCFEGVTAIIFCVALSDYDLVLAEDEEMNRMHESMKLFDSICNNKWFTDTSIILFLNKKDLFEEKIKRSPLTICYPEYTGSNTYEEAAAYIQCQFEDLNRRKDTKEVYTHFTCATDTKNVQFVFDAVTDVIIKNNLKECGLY
HCMV NEC inh = inhibitors of HCMV UL50-UL53 nuclear egress complex interaction; HTRF UL50-UL53 interaction, normalized percent inhibition; inhibition, % (concentration not given with the values); 190,000 compounds, 0.15% hits;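 active = both replicates at 50% or more, plus weaker picks with an unusually low signal ratio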;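 note: stock transfer was 100 nL into about 20 µL; 0% = negative control wells and 100% = wells with untagged competitor protein; inactives centre near -12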
Sa growth inh second temp = further read-out of Sa growth inh, marked with its call; relative growth, %; measured here: growth at 30 °C;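 optical density after 20 h as mean of two plates; 100% = untreated growth and lower means inhibition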
The depositor's hits bear a star; . = not tested or not shown; & = joins results of further samples. An unsorted share of the library; about 0.83% have a hit in one of these screens.

nr	SMILES	Sa growth inh	Sa growth inh second temp
1	CCc1ccc(S(=O)(=O)Nc2ccc3c(c2)CCC(=O)N3CC)cc1	.	.
2	COc1ccc(CCNC(=O)c2c(C)oc3ncn(C)c(=O)c23)c(OC)c1	75	90
3	CS(=O)(=O)N1CCSC1c1ccc(Cl)cc1Cl (stereo not given)	110	83
4	COC(=O)c1ccc(COC(=O)/C=C/c2cccs2)o1	98	92
5	COc1cc(OC)c(NC(=O)c2sc3nc4n(c(=O)c3c2C)CCCC4)cc1Cl	107	93
6	COCCNS(=O)(=O)c1ccc(S(=O)(=O)N2CCCCC2)cc1	101	104
7	O=C(CC1CCN(S(=O)(=O)c2ccccc2)CC1)NCc1cccnc1	.	.
8	N#CCSc1ccc2nnc(-c3ccncc3)n2n1	100	81
9	COCc1c(C(=O)OC)nnn1-c1nonc1N	92	86
10	Cc1oc(-c2ccccc2)nc1C(=O)OCc1nc2ccccc2c(=O)n1CC#N	91	93
11	O=C(O)/C=C/C(=O)N(Cc1ccccc1)Cc1ccco1	114	90
12	CCOC(=O)c1ccc(NC(=O)C2=Cc3ccc(C)cc3OC=C2)cc1	.	.

nr	GIV-Gai inh	HCMV NEC inh
1	100	-28
2	100	.
3	104	18
4	.	-73
5	97	-29
6	102	4
7	99	-26
8	100	.
9	100	2
10	.	-13
11	.	-17
12	102	-17

Other structures follow.
nr	SMILES	Sa growth inh	Sa growth inh second temp
13	O=C(O)c1cccc(S(=O)(=O)/N=C2/C=C(NS(=O)(=O)c3ccccc3)C(=O)c3ccccc32)c1	14	15
14	Cc1c(C)c(C)c(C(O)c2ccccc2)c(C)c1C (stereo not given)	35	40
15	CC(C)NC(=O)c1cc(C(C)C)on1	104	88
16	CC(=O)N1CCN(c2ccccc2NC(=O)COc2ccccc2)CC1	101	72
17	FC(F)(F)c1cc(-c2cccs2)nc(-n2cc(Br)cn2)n1	101	79
18	O=c1[nH]c2ccc(S(=O)(=O)NC3CCCCC3)cc2[nH]1	105	79
19	c1cc2c(cc1Nc1nc3nonc3nc1N1CCOCC1)OCO2	.	.
20	O=C(O)CNC(=O)CC1S\C(=N/N=C/C=C/c2ccccc2)N(Cc2ccco2)C1=O (stereo not given)	74	92
21	CCCCN1CC(=O)N(c2ccc(Br)cc2)[C@@H]2CS(=O)(=O)C[C@@H]21	.	.
22	CCN(CC)c1cc(Nc2ccc(C)c(Cl)c2)c([N+](=O)[O-])c2nonc12	.	.
23	CN(Cc1ccccc1)C(=O)c1ccc2c(c1)OCO2	111	87
24	COc1ccc2[nH]c(=O)c(CN(CCCN3CCOCC3)C(=O)NCc3ccccc3)cc2c1	113	86

nr	GIV-Gai inh	HCMV NEC inh
13	63*	.
14	102	-30
15	90	.
16	103	-26
17	100	-26
18	98	-4
19	99	-33
20	.	-81
21	107	-30
22	107	-4
23	.	-2
24	107	-10

Going on with the list.
nr	SMILES	Sa growth inh	Sa growth inh second temp
25	Cc1sc2nc(-c3cccs3)oc(=O)c2c1C	170	97
26	Cc1cc(C)c2c(n1)CC(C)(C)CC2=O	92	90
27	Cc1ccccc1OCCN1C(=O)NC(C)(c2ccccc2)C1=O (stereo not given)	97	95
28	CCOC(=O)c1sc2ccccc2c1S(=O)(=O)NCc1ccc(F)cc1	95	79
29	O=C(CSc1nccn1C1CCCC1)Nc1ccccc1	109	90
30	CC(C)CCN1CCC(CNS(=O)(=O)c2ccc(-c3cc(C(F)(F)F)no3)s2)CC1	110	77
31	CC(Sc1nc(N2CCOCC2)c2c(c1C#N)CC(C)(C)OC2)C(=O)Nc1ccccc1 (stereo not given)	94	95
32	Cc1cc(NC(=O)N2CCC(CN3CCOCC3)CC2)ccc1Br	108	97
33	CCOC(=O)c1cc(-c2ccncc2)nc2ccccc12	.	.
34	Cc1[nH]c(C)c(S(=O)(=O)N2CCC(C(=O)Nc3ccccc3F)CC2)c1C(=O)N1CCCC1	.	.
35	S=C(SN1CCOCC1)N1CCOCC1	27	-1
36	CCN(CC)C(=O)CSc1nc(-c2ccccc2)cc(=O)[nH]1	108	80

nr	GIV-Gai inh	HCMV NEC inh
25	.	0
26	105	-26
27	.	9
28	100	.
29	105	.
30	100	-34
31	110	1
32	107	.
33	99	-116
34	103	-10
35	.	4
36	103	-13

Sorted by molar mass (lowest first): part of the list above
nr	SMILES	Sa growth inh	Sa growth inh second temp
26	Cc1cc(C)c2c(n1)CC(C)(C)CC2=O	92	90
33	CCOC(=O)c1cc(-c2ccncc2)nc2ccccc12	.	.
36	CCN(CC)C(=O)CSc1nc(-c2ccccc2)cc(=O)[nH]1	108	80

nr	GIV-Gai inh	HCMV NEC inh
26	105	-26
33	99	-116
36	103	-13

Going on with the list:
nr	SMILES	Sa growth inh	Sa growth inh second temp
37	CCOC(=O)c1cc(-c2csc(CS(C)(=O)=O)n2)on1	98	89
38	Cn1nccc1C(=O)OCC(=O)Nc1ccccc1Cl	114	97
39	CCN1CCN(c2ccc(NC(=O)COc3ccccc3)cc2)CC1	89	104
40	O=C(CCc1nc2sc3c(c2c(=O)[nH]1)CCCCC3)N1CCN(c2ccc(F)cc2)CC1	.	.
41	Cn1c(=O)c2c(nc(NCc3ccc4c(c3)OCO4)n2Cc2ccccc2Br)n(C)c1=O	.	.
42	O=C(COc1ccccc1Cl)N(Cc1ccco1)Cc1ccccc1F	77	62
43	CC(C)Sc1ncc(Cl)c(C(=O)Nc2ccc(S(=O)(=O)N3CCCCC3C)cc2)n1 (stereo not given)	89	84
44	Cc1ccc(Cn2c(C)c(CNCCCc3ccccc3)c(C(=O)O)c2C)cc1	109	99
45	N#C/C(=C\c1cn(-c2ccccc2)nc1-c1cccs1)c1cccc(C#N)c1	97	81
46	Cc1ccc(NC(=O)CCSc2nnc(C)o2)cc1	75	63
47	CC1(C)CC(=O)C2=C(C1)Nc1ccc3ccccc3c1C2c1cccnc1 (stereo not given)	99	105
48	Fc1ccc(-c2cc(C(F)(F)F)nc(NCc3ccccc3)n2)cc1	106	97

nr	GIV-Gai inh	HCMV NEC inh
37	100	-19
38	101	8
39	104	5
40	100	-24
41	104	-17
42	104	-16
43	103	3
44	109	-7
45	104	-10
46	104	28
47	.	-10
48	98	-4

(continued)
nr	SMILES	Sa growth inh	Sa growth inh second temp
49	CC(OC(=O)c1cccn1C)C(=O)Nc1ccc(Cl)cc1 (stereo not given)	76	95
50	CCC(C)n1c(SCc2ccccc2Cl)nc2ccsc2c1=O (stereo not given)	102	97
51	CN(C)c1ccc(/C=C2/C(=O)NC(=O)N(C(C)(C)C)C2=O)cc1	123	99
52	CCOC(=O)C1=C(C)NC2=C(C(=O)CC(c3ccc(OC)c(OC)c3)C2)C1c1ccccc1OC(C)C (stereo not given)	.	.
53	CCCNS(=O)(=O)c1ccc(OC)c(-c2nc(C)no2)c1	.	.
54	CCn1c(COC(=O)c2c(NC(C)=O)sc(C)c2C)nc2cc(S(=O)(=O)N(C)C)ccc21	89	95
55	O=C1CCN(CC(=O)Nc2ccc(Cl)cc2C(F)(F)F)CC1	84	89
56	CCCCN(c1nc2nc(C)cc(C)n2n1)S(=O)(=O)c1ccc(C)cc1	.	.
57	COc1ccc(NS(=O)(=O)c2cc(C(=O)N3CCN(C(C)=O)CC3)ccc2Cl)cc1	91	92
58	CCOC(=O)c1oc2ccc(S(=O)(=O)n3nc(-c4ccc(Br)cc4)cc3N)cc2c1C	103	88
59	Cc1cccc(C(CC(=O)NC2CC2)n2cccc2)c1 (stereo not given)	103	86
60	CCc1c(C)[nH]c(C(=O)OCc2ccccc2)c1C	92	93

nr	GIV-Gai inh	HCMV NEC inh
49	.	-18
50	110	.
51	163	-18
52	102	0
53	106	2
54	.	-30
55	.	-18
56	106	1
57	.	-12
58	102	-18
59	101	-20
60	.	-9

Next section.
nr	SMILES	Sa growth inh	Sa growth inh second temp
61	Cc1nc(Cc2nnc(SC/C(O)=C(\C#N)c3nc4ccccc4[nH]3)o2)cs1	80	90
62	CC(C)C(=O)N1C(=O)c2cccc3c(S(=O)(=O)N(C)C)ccc1c23	88	92
63	COC(=O)c1cc(S(=O)(=O)N2CCCC2C(=O)Nc2nc(C)cs2)cn1C (stereo not given)	.	.
64	CSc1nc(-c2ccccc2)c(C#N)c(N(C)C2CCCCC2)n1	99	93
65	N#Cc1ccc(CSc2nnc(-c3cccs3)n2CC2CCCO2)cc1 (stereo not given)	106	95
66	CCOC(=O)c1c(C)[nH]c(C)c1C(=O)COC(=O)c1ccc(N2CCCC2=O)cc1	97	99
67	O=C(NC(Cc1ccccc1)C(=O)O)C1CCCCC1 (stereo not given)	111	92
68	COc1ccc(Cl)cc1C(=O)N1CCCC1	105	71
69	CC1CC(C)CN(S(=O)(=O)c2ccc(Cl)c(C(=O)O)c2)C1 (stereo not given)	84	91
70	O=S(=O)(Nc1ccc(-c2ccc(N3CCCCC3)nn2)cc1)c1ccc(Br)cc1	.	.
71	CCOC(=O)c1c(C)[nH]c(C)c1S(=O)(=O)NCC(=O)Nc1ccc(C)c(N(C)C)c1	104	90
72	CCCn1c(SC(C(=O)NC(=O)NC)c2ccccc2)n[nH]c1=O (stereo not given)	100	89

nr	GIV-Gai inh	HCMV NEC inh
61	.	-6
62	101	-43
63	100	9
64	99	-7
65	.	7
66	.	9
67	107	-7
68	96	6
69	.	-20
70	100	0
71	104&105	8
72	.	-18

Next part; the last 7 above are carried over.
nr	SMILES	Sa growth inh	Sa growth inh second temp
66	CCOC(=O)c1c(C)[nH]c(C)c1C(=O)COC(=O)c1ccc(N2CCCC2=O)cc1	97	99
67	O=C(NC(Cc1ccccc1)C(=O)O)C1CCCCC1 (stereo not given)	111	92
68	COc1ccc(Cl)cc1C(=O)N1CCCC1	105	71
69	CC1CC(C)CN(S(=O)(=O)c2ccc(Cl)c(C(=O)O)c2)C1 (stereo not given)	84	91
70	O=S(=O)(Nc1ccc(-c2ccc(N3CCCCC3)nn2)cc1)c1ccc(Br)cc1	.	.
71	CCOC(=O)c1c(C)[nH]c(C)c1S(=O)(=O)NCC(=O)Nc1ccc(C)c(N(C)C)c1	104	90
72	CCCn1c(SC(C(=O)NC(=O)NC)c2ccccc2)n[nH]c1=O (stereo not given)	100	89
73	Cc1cc(S(=O)(=O)NC2CCCCNC2=O)c(C)s1 (stereo not given)	94	93
74	CCOC(=O)c1c(C)c(S(=O)(=O)N2CCCC2)c(C)n1C	.	.
75	O=C(OC[C@@H]1CCCN2CCCCC12)c1ccccc1 (stereo not given in full)	93	93
76	O=C(O)c1ccccc1S(=O)c1ccc(Cl)cc1 (stereo not given)	94	88
77	Cc1cc(C)n(CCCN)n1	106	95
78	CC1(C)C(=O)N(CC(=O)N2CC=C(c3ccccc3)CC2)c2ccccc21	.	.
79	Cc1ccccc1CCNC(=O)c1cc2ccccn2n1	102	86
80	O=C(CSc1nc2ccccc2n1-c1ccccc1)c1ccc[nH]1	86	85
81	CCn1cc(/C=N/O)c(C)n1	94	96
82	Cc1ccc(-n2nc3c(N4CCC(C(=O)NCCc5ccccc5C)CC4)nnc(C)c3c2C)cc1	82	94
83	Clc1ccc(-c2nc(-c3ccccc3)no2)cc1	107	98
84	C=CCNC(=O)c1cccc2c1-c1ccccc1C2=O	107	101

nr	GIV-Gai inh	HCMV NEC inh
66	.	9
67	107	-7
68	96	6
69	.	-20
70	100	0
71	104&105	8
72	.	-18
73	105	-24
74	104	-17
75	.	-9
76	102	18
77	108	-3
78	100	-11
79	101	.
80	.	10
81	91	0
82	108	.
83	105	-26
84	105	-49

Three compounds picked at random from those above:
nr	SMILES	Sa growth inh	Sa growth inh second temp
58	CCOC(=O)c1oc2ccc(S(=O)(=O)n3nc(-c4ccc(Br)cc4)cc3N)cc2c1C	103	88
32	Cc1cc(NC(=O)N2CCC(CN3CCOCC3)CC2)ccc1Br	108	97
79	Cc1ccccc1CCNC(=O)c1cc2ccccn2n1	102	86

nr	GIV-Gai inh	HCMV NEC inh
58	102	-18
32	107	.
79	101	.

Next part.
nr	SMILES	Sa growth inh	Sa growth inh second temp
85	O=S(=O)(Nc1ccccc1C(F)(F)F)c1ccc(N2CCCCS2(=O)=O)cc1	122	99
86	CCN(CC)c1ncc(C(=O)O)cc1NS(=O)(=O)c1ccc(F)c(F)c1	.	.
87	COc1ccc(-c2onc(C)c2C)cc1S(=O)(=O)N(C)Cc1ccccc1	92	99
88	CCOC(=O)[C@@H]1CSC(c2ccc(OC)c(OC)c2)N1 (stereo not given in full)	112	89

nr	GIV-Gai inh	HCMV NEC inh
85	100	.
86	92	-9
87	107	.
88	.	-14
